Sa helicase inh – S. aureus DNA helicase inhibition; inhibition, %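 (tested at about 80 µM)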; purified S. aureus helicase, fluorescence unwinding assay; about half of the hits fall short of the stated cut; 120,000 compounds, 0.05% hits;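 active = both duplicates at 50% or more, or one of them with a favoured structure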;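 note: 0% = mean of negative control wells and 100% = mean of positive control wells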
MgrA DNA FP – alters Staphylococcus aureus MgrA binding to DNA | fluorescence polarization | 84,000 compounds, 0.13% hits | inhibition, %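 (about 10 µg/mL by stock and volumes)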;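 active = above 50% in either of two replicates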;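 note: 0% = protein plus DNA without compound and 100% = DNA alone without protein; higher means less MgrA bound to DNA so lower polarization; one replicate is shown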
* marks the source's active call; other numbers are inactive results; · = not tested or not shown.

SMILES	Sa helicase inh	MgrA DNA FP
CCOC(=O)N1CCC(N=C2NS(=O)(=O)C(c3ccc(C)cc3)=C2C)CC1	25	·
O=C(O)CN1C(=O)/C(=C\c2cccc([N+](=O)[O-])c2O)SC1=S	·	1.3
O=S(=O)(Nc1cccc(C(F)(F)F)c1)c1ccccc1	-17	-0.3
COc1ccc(/C=C2/N=C(C)OC2=O)cc1OC	·	-1.0
CC(C)Nc1nc(NC(N)=O)nc(NC(C)C)n1	1	1.4
Nc1ccc(-c2nc3cccnc3s2)cc1	13	·
CCN(CC)c1ccc(C2C(C#N)=C(N)N(c3ccccc3Cl)C3=C2C(=O)CCC3)cc1 (stereo unspecified)	30	·
Cc1nc(C)c(C(=O)O)c(-c2cccs2)c1C(=O)O	·	-3.0
CNc1c(NC(=O)Nc2cc(C)cc(C)c2)c(=O)oc2ccccc12	33	·
COc1ccc(NC(=O)c2c3c(nc4ccccc24)CCCC3)cc1	-4	2.5
NC(=O)c1oc2ccccc2c1NC(=O)CSc1ccc(F)cc1	15	·
CC(=O)N1CCc2cc(Br)cc(S(=O)(=O)CC(=O)Nc3ccccc3C)c21	7	·
CCc1cccc2c(C3=Nn4cnnc4SC3c3ccccc3)c[nH]c12 (stereo unspecified)	16	·
O=C(/C=C/c1cccs1)OCC(=O)N1CCN(C(=O)c2ccco2)CC1	-14	·
O=S(=O)(NC1Cc2ccccc2C1)c1ccc(Br)s1	·	-0.6
CCOC(=O)c1cnc(N2CCCCC2)nc1C1CCN(C(=O)OC(C)(C)C)CC1	6	·
O=C(COc1ccc2oc(-c3ccco3)cc(=O)c2c1)NC1CCCCC1	6	-0.5
CC(C)N(Cc1ccccc1)S(=O)(=O)c1ccc(-c2ccccn2)s1	·	-0.9
COc1cc(-c2c(C#N)c(OC)[nH]c(=O)c2C#N)cc(OC)c1OC	·	2.0
CCOc1ccc2cc(-c3ccccn3)c(=N)oc2c1	-10	-1.2
O=C(O)C1CCN(C(=O)c2cc(F)cc3c2OCOC3)CC1	·	-1.6
COc1ccc(C2=C(N)C(=O)NC2=O)cc1OC	19	-1.4
O=C(O)COc1ccc(OC(F)(F)F)cc1	·	-0.9
COCCn1c(C)cc(C(=O)CSc2nnc3ccccn23)c1C	14	0.7
COc1cc2[nH]c(=S)n(N(C(C)=O)C(C)=O)c(=O)c2cc1OC	16	-0.7

Looked up by structure from the list above (2):
SMILES	Sa helicase inh	MgrA DNA FP
COCCn1c(C)cc(C(=O)CSc2nnc3ccccn23)c1C	14	0.7
O=C(O)CN1C(=O)/C(=C\c2cccc([N+](=O)[O-])c2O)SC1=S	·	1.3

Five structures out of the list, ordered by number of heavy atoms, low to high:
SMILES	Sa helicase inh	MgrA DNA FP
COc1ccc(C2=C(N)C(=O)NC2=O)cc1OC	19	-1.4
O=S(=O)(Nc1cccc(C(F)(F)F)c1)c1ccccc1	-17	-0.3
O=C(O)CN1C(=O)/C(=C\c2cccc([N+](=O)[O-])c2O)SC1=S	·	1.3
COCCn1c(C)cc(C(=O)CSc2nnc3ccccn23)c1C	14	0.7
CCN(CC)c1ccc(C2C(C#N)=C(N)N(c3ccccc3Cl)C3=C2C(=O)CCC3)cc1 (stereo unspecified)	30	·

The results go on:
SMILES	Sa helicase inh	MgrA DNA FP
Cc1ccc(-c2nc(C#N)c(NCCCN(C)C)o2)cc1	11	0.7
C/C(=N\NC(=O)c1cc(Br)ccc1O)c1ccccn1	4	6.8
CCC(=O)Nc1c(-c2ccc(F)cc2)nc2ccccn12	12	·
CCc1noc(C)c1C(=O)OCC(=O)Nc1sc(C)c(C)c1C(=O)OC	13	·
c1ccc2sc(COCc3cn4ccccc4n3)nc2c1	16	·
CC(C)CC(=O)N1c2ccccc2NC2=C(C(=O)CC(C)(C)C2)C1c1cccnc1 (stereo unspecified)	8	-1.9
C=C(C)C1CCC(C)OC1c1ccc2c(c1)OCO2 (stereo unspecified)	0	·
CC1CN(c2ccc(N)cc2)CC(C)O1 (stereo unspecified)	-3	0.4
CC1C(=O)NN=C1C(=O)N/N=C\c1ccc(O)cc1O (stereo unspecified)	4	·
CC(C)c1nn2c(=O)cc(COC(=O)c3ccccc3NC(=O)c3ccco3)nc2s1	-2	·
CC1=CCC2C(=O)N(c3ccc(S(N)(=O)=O)cc3)C(=O)C2C1 (stereo unspecified)	-19	·
O=C1/C(=C/c2ccccc2)Sc2ccccc21	-15	·
COc1ccc(CCCc2nnc(SC(C)C(=O)Nc3nccs3)n2C)cc1 (stereo unspecified)	3	-2.8
CN(c1cccc(NC(=O)CN(c2ccccc2)S(C)(=O)=O)c1)S(C)(=O)=O	34	·
Cc1cccc(NC(=S)N2CC(C)OC(C)C2)c1 (stereo unspecified)	·	2.9
O=S(=O)(NCC1COc2ccccc2O1)c1cccc(C(F)(F)F)c1 (stereo unspecified)	·	-3.6
O=C1Cc2cc(NS(=O)(=O)c3ccccc3)cc3c2N1CCC3	10	·
O=C1Nc2ccccc2S/C1=C\C(=O)N1CCC2(CC1)OCCO2	43	·
S=c1[nH]nc(-c2cccs2)n1C1CCc2ccccc21 (stereo unspecified)	-7	8.4
O=C(Nc1cc2ccccc2s1)NC1CCN(Cc2ccccc2)CC1	·	4.9
COc1ccc(/C=C2\C(=O)N(c3ccccc3)N=C2C)cc1	36	·
Clc1ccccc1Cn1c(C2CCCO2)nc2ccccc21 (stereo unspecified)	-9	0.7
Cc1cn2c(=O)c(C(=O)N3CCC(CCCC4CCN(C(=O)c5cnc6sc(C)cn6c5=O)CC4)CC3)cnc2s1	14	·
CN=C(Nc1ccccc1OC)c1ccccc1	-7	·
CCCCC(=O)Nc1ccc(C(=O)Nc2cccnc2)cc1	3	-0.7
More compounds:
SMILES	Sa helicase inh	MgrA DNA FP
O=C(Oc1cccnc1)c1c(F)cccc1F	·	2.9
O=C(O)COc1ccc2occ(C(=O)c3ccccc3)c2c1	14	·
CC(NCc1cccs1)c1ccccc1 (stereo unspecified)	3	0.3
CCn1c(SCCOc2ccccc2)nnc1-c1ccco1	-8	·
Cc1ncsc1C(=O)OC(C#N)c1cccc(Oc2ccccc2)c1 (stereo unspecified)	-9	-0.9
O=C1CC(N(O)c2ccccc2)C(=O)N1c1ccc(N2CCOCC2)cc1 (stereo unspecified)	-14	-0.1
Cc1onc(-c2c(Cl)cccc2Cl)c1C(=O)Nc1nnc(C2CC2)s1	·	-2.0
Nc1c2c(nn1-c1ccccc1)Oc1ccc(Cl)cc1C2	23	·
CN(C)C(=O)CNC(=O)c1ccc(S(=O)(=O)N(C)C)cc1	-11	·
Cc1ccc(NC(=O)CN(C)C(=O)c2ccccn2)cc1	-6	·
O=C(c1cc(-c2ccccc2)c(N2CCOCC2)s1)N1CCC2(CC1)OCCO2	-2	·
O=C1Nc2ccc(F)cc2C1O (stereo unspecified)	·	-0.5
C/C(=N\N1CCN(C)CC1)c1ccc(OC(F)F)cc1	4	·
CCCN1C(=O)/C(=C/C=C2/Sc3ccccc3N2CCO)SC1=S	-2	0.1
CN(C)c1ccc(C2NN(Cc3ccccc3)C3C(=O)N(C4CCCCC4)C(=O)C23)cc1 (stereo unspecified)	4	-0.9
CCCCc1cc(C)c2[nH]c(=O)cc(C)c2c1	·	-2.4
CCOC(=O)c1sc(N)c(C#N)c1COC(=O)c1ccc(S(=O)(=O)NCc2ccco2)cc1	-86	·
C/S(=N/C(=O)Nc1ccc(Cl)cc1)c1ccc(OC(=O)c2ccc(Cl)cc2)cc1 (stereo unspecified)	·	-0.9
Cc1ccc(C)n1-c1ccc(C(=O)NN)cc1	·	6.8
CN(C)C(=O)Cn1c2[n+](c3ccccc31)CC(O)CS2 (stereo unspecified)	1	-2.0
Cc1cc(C(=O)OCC(=O)N2CCCC2)c2ccccc2n1	13	-1.6
CN(Cc1ccccc1)S(=O)(=O)C1CCS(=O)(=O)C1 (stereo unspecified)	18	·
O=C(Cc1csc(N2CCOCC2)n1)N/N=C/c1ccccc1C(=O)O	-11	·
CC1=C(C(=O)Nc2ccccc2C)C(c2ccccc2O)NC(=S)N1 (stereo unspecified)	12	3.5
COc1ccc(S(=O)(=O)N(C)CC(=O)O)cc1	6	-0.8

Record cards, as listed above. Values in the order: Sa helicase inh | MgrA DNA FP
CC(C)Nc1nc(NC(N)=O)nc(NC(C)C)n1 as listed: 1 | 1.4
CN(c1cccc(NC(=O)CN(c2ccccc2)S(C)(=O)=O)c1)S(C)(=O)=O as listed: 34 | ·
O=C1Nc2ccccc2S/C1=C\C(=O)N1CCC2(CC1)OCCO2 as listed: 43 | ·
O=C(O)COc1ccc2occ(C(=O)c3ccccc3)c2c1 as listed: 14 | ·
COc1ccc(/C=C2\C(=O)N(c3ccccc3)N=C2C)cc1 as listed: 36 | ·

(next part)
SMILES	Sa helicase inh	MgrA DNA FP
O=C(CCc1nc2ccccc2s1)N1CCN(c2ccccn2)CC1	12	·
CCn1c(CN2CCN(c3ccccc3F)CC2)nc2c1c(=O)n(C)c(=O)n2C	-1	·
Nc1ccc2c(c1)CCC2=O	-14	·
COc1ccc(CCNS(=O)(=O)c2cc(C(=O)O)ccc2Cl)cc1OC	5	·
Cc1ccc(NC(=S)NNC(C)(C)C)cc1	·	-0.4
C[N+]1(C2CCCCC2)Cc2ccccc2C1	1	0.7
CCc1cccc(NC(=S)N2CCC(c3ccccc3)C2)c1 (stereo unspecified)	-2	-2.8
O=C(OCC(=O)C12CC3CC(CC(C3)C1)C2)c1ccc(Br)o1	8	·
COc1ccc(CCNc2nc(Cl)nc(N3CC4CC(C3)c3cccc(=O)n3C4)n2)cc1OC (stereo unspecified)	6	-0.7
CC1=C(C#N)c2nc(N)c(C#N)c(C)c2/C1=C\C=C\c1ccccc1	-15	2.0
CSc1ccc(Oc2cccc(F)c2C#N)cc1	·	0.1
CCOc1ccc(CCNC(=O)c2nnc(Cc3ccc(Cl)cc3)o2)cc1OCC	10	·
CCC(C(=O)OC)n1cnc2c(nnn2-c2cccc(Cl)c2)c1=O (stereo unspecified)	1	0.5
O=C(CNc1ccc(F)cc1F)NC(=O)NCc1ccco1	4	·
O=C(COc1ncnc2ccccc12)N1CCc2ccccc21	0	-2.5
CCC(C(=O)Nc1ccccc1OC)n1c(C(=O)OC)cc2occc21 (stereo unspecified)	-3	11
O=C(O)/C=C\C(=O)Nc1ccccc1C(=O)O	7	·
COc1cccc(-c2nnc(SCC(=O)N3CC(C)OC(C)C3)n2C)c1 (stereo unspecified)	-12	·
Cc1cccc2c(=O)n(CCNCc3ccccc3)c(C)nc12	·	-1.4
COc1cccc(C(=O)CN2C3=NCCN3c3ccccc32)c1	11	-0.8
COC(=O)c1c(C)oc2cc(Br)c(OC)cc12	14	·
CC(=O)Nc1ccc(NC(=O)Cc2ccccc2)cc1	-2	1.7
Cc1ccc(NC(=O)C(c2ccccc2)N(C)C)cc1Cl (stereo unspecified)	-4	·
O=C(Nc1ccc(F)cc1F)c1cnccn1	6	4.8
O=C(Nc1ccc(N2CCCCC2)cc1)C1CCCCC1	17	0.9
(next part)
SMILES	Sa helicase inh	MgrA DNA FP
Cc1nc2[nH]c(=O)[nH]c(=O)c2s1	-4	·
O=C(Nc1ccccc1)c1ccccc1OCc1nnc(-c2cccs2)o1	-8	·
O=C(NC(c1ccccc1)c1ccccc1)c1cccnc1	9	1.8
CSc1nc2nc(N)nc(N)c2s1	3	-5.5
Cc1cc(C(=O)CSc2nnc(-c3sc4ccccc4c3Cl)o2)c(C)n1C1CC1	-11	·
NC(=O)c1oc2ccccc2c1NC(=O)CS(=O)(=O)c1ccccc1	9	·
Cc1ccc(NC(=O)C2CCCCC2C(=O)O)cc1C (stereo unspecified)	·	-1.2
CCN(C(=O)c1cccc2c1SCCC2=O)c1cc(Cl)ccc1OC	-1	0.3
CCn1cnc2cc(NC(=O)c3ccccc3)ccc21	-1	·
Cc1nc2ccccc2c(=O)n1/N=C/c1ccc(Cl)c(Cl)c1	·	-0.5
COc1ccc(CN(Cc2cccs2)C(=O)Cc2cccs2)cc1OC	8	·
CCOC(=O)c1cnn2c1nc(N)c1ccccc12	·	-2.8
O=C(O)Cc1ccc2c3c(cccc13)CC2	-5	·
N#Cc1ccccc1CSc1nnc(-c2cccs2)n1Cc1ccccc1	-15	·
Cc1ccc(N2C(=O)CC(N3CCc4ccccc43)C2=O)cc1Cl (stereo unspecified)	-7	-2.5
NC(=O)Cn1nnnc1-c1ccccc1N	22	·
CCOC(=O)NC(=O)/C(C#N)=C/Nc1sc(C)c(C)c1C(=O)OCC	·	0.3
O=C(Nc1ccccn1)C1c2ccccc2Oc2ccccc21	18	2.7
CC1(C)CC(=O)C(C(=O)/C=C/c2ccco2)C(=O)C1	8	0.5
CC(N=C1NS(=O)(=O)c2ccccc21)C(=O)O (stereo unspecified)	-11	·
O=C1NC(=O)N(c2ccccc2F)C(=O)/C1=C/c1cn(CC(=O)N2CCCC2)c2ccccc12	-5	22
Cc1ccc(Nc2nc(C(=O)N3CCC(C)CC3)cs2)cc1	10	-1.9
COc1ccc(-n2cc(C(=O)Nc3cc(OC)cc(OC)c3)nn2)cc1	-10	·
CCn1c(CCC(=O)Nc2cc(OC)cc(OC)c2)nc2cc(S(=O)(=O)N(C)C)ccc21	16	·
CSc1ncc(S(=O)(=O)Cc2cccs2)c(N)n1	·	-0.3
The list goes on:
SMILES	Sa helicase inh	MgrA DNA FP
CC1=NN(c2ccccc2)C(=O)/C1=C\c1ccc(N(C)C)cc1	-38	·
C[n+]1c(COc2ccccc2O)sc2ccccc21	-3	3.9
CNC(=O)c1sc(SC)c2c1CCC=C2	·	2.7
COC(=O)CCc1ccc(/C=C/C(=O)O)o1	-13	·
CN(C(=O)c1ccc2c(c1)C(=O)N(CCC1=CCCCC1)C2=O)C1CCCCC1	11	1.2
COc1ccc(-c2nonc2NC(=O)C(C)C)cc1	-6	·

Among those listed so far, these have a tert-butyl group.
SMILES	Sa helicase inh	MgrA DNA FP
CCOC(=O)c1cnc(N2CCCCC2)nc1C1CCN(C(=O)OC(C)(C)C)CC1	6	·
Cc1ccc(NC(=S)NNC(C)(C)C)cc1	·	-0.4

Assay outcomes as filed in PubChem BioAssay.

A portion of the library; rates above refer to the full screens.
